Hsc70 – small molecules displacing fluorescent ligand from Hsc70 – biochemical, fluorescence polarization, primary screen (AID 568); Hsc70 fluorescence polarization, probe displacement; higher % means a stronger effect; strong numbers were not always called active; displacement, % at 20 µM, or IC50 in µM where a hit was titrated; 83,000 tested, under 10 active;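 active = displacement above 50% without optical interference and an IC50 on retest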;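 also: ATPase domain with a fluorescein-tagged ATP probe; 0% = vehicle and 100% = excess ADP; read after one hour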
MT1-MMP reporter – MT1-MMP gene expression reporter suppression – cell-based, luciferase reporter, luminescence (AID 618); MT1-MMP promoter luciferase reporter cells, luminescence; calls from a first round at 10 µM; hits with a dose series show EC50 in µM; hit rate 0.62% among 87,000;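 active = over half of the reporter light lost at 10 µM or EC50 under 50 µM; inactive = the rest and hits that failed the dose series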;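 also: actives suppress MT1-MMP promoter-driven transcription so potencies describe inhibitors; HT1080 fibrosarcoma cells; overnight exposure; toxic or luciferase-blocking compounds were not removed from the actives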
WNV NS2B-NS3 inh – blocks West Nile virus NS2B-NS3 protease activity. P06935. WNV NS2B-NS3 protease, fluorogenic substrate Ex360/Em465; stronger effect = lower value. z-score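 (tested at a level between 10 and 100 µM)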. hit rate 0.18% among 65,000;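 active = z-score at -3 or under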;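 also: score is relative to mean and spread of the compound wells of a plate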
Target sequence (P06935 1371-1501 limits assumed): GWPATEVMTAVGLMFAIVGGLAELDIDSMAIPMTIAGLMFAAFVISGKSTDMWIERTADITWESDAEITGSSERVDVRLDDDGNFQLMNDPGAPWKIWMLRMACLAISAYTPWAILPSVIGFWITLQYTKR
Target sequence (P06935 1502-1679 limits assumed): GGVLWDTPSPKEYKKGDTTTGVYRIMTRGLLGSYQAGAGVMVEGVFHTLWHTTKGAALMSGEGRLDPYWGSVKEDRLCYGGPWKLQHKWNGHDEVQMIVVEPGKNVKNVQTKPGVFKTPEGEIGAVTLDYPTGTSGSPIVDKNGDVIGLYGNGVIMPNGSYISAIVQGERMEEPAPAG
Starred values were filed as active, the others as inactive; i = inactive; x = no result given.

Preview:
Sequence of screens: Hsc70, MT1-MMP reporter, WNV NS2B-NS3 inh
O=C1CC(c2cccc(Br)c2)C2=C(CCCC2=O)N1 (stereo unspecified)
 : 3.7%, i, -0.82
Cc1[nH]nc2c1C(c1cn[nH]c1-c1ccc(F)cc1)C(C#N)=C(N)O2 (stereo unspecified)
 : 4.7%, i, -0.74
CCOC(=O)N1CCN(CC(=O)n2c(C)c(C)c3ccccc32)CC1
 : -2.8%, i, 1
COc1ccc(OC)c(-c2cc(C(=O)N3CCc4ccccc4C3)no2)c1
 : -2.6%, i, -0.42
COc1ccccc1NC(=O)CSc1nccc(=O)[nH]1
 : 0.9%, i, -0.17
CC(C)C(OC(=O)c1ccco1)C(=O)NC1CCCCC1 (stereo unspecified)
 : 8.9%, i, -0.85
COc1ccc2nc(/N=C(\N)NC(=O)C(C)(C)C)nc(C)c2c1
 : -3.3%, i, -0.32

The list itself, from the start:
Sequence of screens: Hsc70, MT1-MMP reporter, WNV NS2B-NS3 inh
O=C1CC(c2cccc(Br)c2)C2=C(CCCC2=O)N1 (stereo unspecified)
 : 3.7%, i, -0.82
Cc1[nH]nc2c1C(c1cn[nH]c1-c1ccc(F)cc1)C(C#N)=C(N)O2 (stereo unspecified)
 : 4.7%, i, -0.74
CCOC(=O)N1CCN(CC(=O)n2c(C)c(C)c3ccccc32)CC1
 : -2.8%, i, 1
COc1ccc(OC)c(-c2cc(C(=O)N3CCc4ccccc4C3)no2)c1
 : -2.6%, i, -0.42
COc1ccccc1NC(=O)CSc1nccc(=O)[nH]1
 : 0.9%, i, -0.17
CC(C)C(OC(=O)c1ccco1)C(=O)NC1CCCCC1 (stereo unspecified)
 : 8.9%, i, -0.85
COc1ccc2nc(/N=C(\N)NC(=O)C(C)(C)C)nc(C)c2c1
 : -3.3%, i, -0.32
Cc1cc(C)c(COCc2cc(/C=N/O)c(C)cc2C)cc1/C=N/O
 : 3.8%, i, x
COC(=O)c1ccc(N2C(=O)CC(N3CCC(O)(c4ccc(Br)cc4)CC3)C2=O)cc1 (stereo unspecified)
 : -2.1%, i, x
CC1CCN(C(=O)CCc2ccc(S(=O)(=O)NC(C)C)cc2)CC1
 : -3.8%, i, x
COc1ccc(C2(O)CC3CCC(C2)N3c2cc(C)nc(-c3ccccc3)n2)cc1 (stereo unspecified)
 : -3.0%, i, 0.35
CC[n+]1c(P(=O)([O-])c2ccccc2)[nH]c2ccccc21
 : 2.4%, i, x
CCOc1cccc(NC(=O)Cc2cccs2)c1
 : -6.7%, i, 0.89
Cc1cc2c3c(c1C)C1(C(=O)N3C(C)(C)CC2C)C(C#N)=C(N)Oc2cc(O)ccc21 (stereo unspecified)
 : 2.3%, i, x
CCS(=O)(=O)c1nc(NC(C)=O)n[nH]1
 : -3.6%, i, 1.1
C/C(Nc1ccc(F)cc1)=C(/C#N)C(N)=O
 : -4.2%, i, 1.5
c1ccc(Cn2nnnc2C(c2ccccn2)N2CCN(c3ccccc3)CC2)cc1 (stereo unspecified)
 : 2.2%, i, x
O=C(CCCNS(=O)(=O)c1ccc(Br)cc1)N1CC[C@@]2(O)CCCC[C@H]2C1
 : -0.9%, i, -0.73
Cc1cc(C)n(-c2nc3c(c(=O)[nH]c(=O)n3C)n2Cc2ccc(F)cc2)n1
 : 2.2%, i, 0.5
O=C(Oc1ccc(-c2cnc3ccccc3n2)cc1)c1ccco1
 : 2.8%, i, -1
COc1cccc(-c2nnc3sc(-c4ccc(Cl)cc4)nn23)c1
 : -2.4%, i, 1.6
O=C(O)CCc1ccc(-c2ccccc2)n1NC(=O)c1ccco1
 : -2.0%, i, -0.21
Oc1ccccc1CNn1cnnc1
 : -0.4%, i, 0.28
CC(=O)C1=C(O)C(=O)N(c2ccc(Br)cn2)C1c1ccccc1F (stereo unspecified)
 : 0.0%, i, -1.7
O=C(CN(CC(=O)N1CCOCC1)S(=O)(=O)c1ccc(Br)s1)N1CCOCC1
 : 0.9%, i, x
Cc1c(NC(=O)c2cc(C(C)C)on2)c(=O)n(-c2ccccc2)n1C
 : 6.6%, i, -0.36
Cc1cc(C)c(C(=O)OCCNC(=O)c2cccnc2)cc1C
 : -3.4%, i, -0.27
CCOC(=O)C1=C(N)n2c(s/c(=C\c3cccnc3)c2=O)=C(C#N)C1c1cccnc1 (stereo unspecified)
 : -1.6%, i, -0.41
CN(C)c1ccc(NC(=O)CSCc2nc3c(nnn3Cc3ccc(F)cc3)c(=O)[nH]2)cc1
 : -0.9%, i, 0.45
Clc1ccc(SCCCCn2cncn2)cc1
 : -2.6%, i, 0.29
CC(=O)N(Cc1cc2cc(C)c(C)cc2n2nnnc12)CC1COCCO1 (stereo unspecified)
 : -3.5%, i, -0.25
COc1ccccc1NC(=O)CSc1nnc(C)o1
 : 5.9%, i, -0.08
O=C(CSc1ncnc2nc[nH]c12)N1CCOCC1
 : -3.3%, i, 0.1
CCCCOC(=O)C1=C(C)Nc2ncnn2C1c1ccc(OC)c(OC)c1 (stereo unspecified)
 : -1.2%, i, -0.04
Oc1ccc2c(c1)oc1cc(O)ccc12
 : 7.0%, i, 1.2
Cc1ccc(Nc2nc(N)nc(CN3CCN(C)CC3)n2)cc1C
 : -5.5%, i, 0.21
COc1cc(-c2cc(C(=O)O)c3cc4c(cc3n2)OCCO4)cc(OC)c1OC
 : -1.2%, i, x
Clc1ccc2c(c1)[C@H]1OCC[C@H]1[C@@H](c1ccco1)N2
 : 1.9%, i, -0.39
Cc1cc(NC(=O)C2CCCN(S(=O)(=O)c3c(C)noc3C)C2)n[nH]1 (stereo unspecified)
 : 2.4%, i, 0.95
O=C(Nc1cccc(C(F)(F)F)c1)C1C2CC3OC(=O)C1C3C2 (stereo unspecified)
 : -2.2%, i, -1.4
COc1cccc(CN2CCN(C(=O)c3cccc4ccccc34)CC2)c1OC
 : -0.1%, i, -0.44
CCN1CCN(CC(=O)NC2CCCCC2)C(=O)C1=O
 : 2.9%, i, 0.45
CCOC(=O)C1=C(N)n2c(s/c(=C\c3ccco3)c2=O)=C(C(=O)OC(C)C)C1c1ccco1 (stereo unspecified)
 : -2.0%, i, -0.88
CCOc1ccc(C(=O)NCc2ccco2)cc1
 : -4.4%, i, 1.1
CC(=O)c1cc(C#N)c(SCc2ccccc2)nc1C
 : 0.3%, i, x
Cc1ccc(C2CC(c3ccc(C)cc3)n3nc(N)nc3N2)cc1 (stereo unspecified)
 : 3.9%, i, -0.34
O=C1CC(C(=O)O)c2ccccc2N1 (stereo unspecified)
 : 7.3%, i, -0.21
CCC12CN3CC(CC)(CN(C1)C3c1ccc(OC(C)C)cc1)C2=O (stereo unspecified)
 : -7.2%, i, -0.09
COc1cc(C2N(c3ccc(Cl)cc3)C(=O)C3CCCN32)cc(OC)c1OC (stereo unspecified)
 : 0.0%, i, -0.01
O=C(C1CCCO1)N1CCN(c2c3c(nc4cc(-c5ccc(F)cc5)nn24)CCC3)CC1 (stereo unspecified)
 : 0.3%, i, 0.21
COc1ccccc1N1CCN(C(=O)c2cc(C3CC3)on2)CC1
 : 2.0%, i, -0.33
Cc1ccccc1-c1nc(CN2CCC(C(=O)NCCCN3CCOCC3)CC2)c(C)o1
 : -2.0%, i, -0.65
CCOC(=O)c1ccc(N2C(=O)c3n[nH]c(C)c3C2c2ccc(OC)c(OC)c2)cc1 (stereo unspecified)
 : -4.8%, i, -0.26
CCOc1ccc(NC(=O)c2cn(-c3ccc(OCC)cc3)c(=O)c3cc(OC)c(OC)cc23)cc1
 : -0.9%, i, x
Cc1cc(=O)oc2cc(OCC(=O)N3c4ccccc4CC3C)ccc12 (stereo unspecified)
 : 2.2%, i, -0.54
COc1cccc(C2=NC(C)(C)NC(c3ccccc3O)C2)c1 (stereo unspecified)
 : 6.6%, i, -0.34
Cc1cc(C(=O)OCC(=O)N2CC(=O)Nc3ccccc32)no1
 : 9.4%, i, 1.1
COc1ccc(NC(=O)CCc2nc(-c3ccc(C)cc3)no2)c(OC)c1
 : 1.5%, i, 1.1
NC(=O)C1CC(=O)N(c2ccc(OCC(=O)Nc3cccc(C(F)(F)F)c3)cc2)C1 (stereo unspecified)
 : 4.8%, i, 0.55
Nc1nc(C2CCCN2S(=O)(=O)c2ccc(Cl)cc2)cs1 (stereo unspecified)
 : -5.4%, i, -1.6

More records
Sequence of screens: Hsc70, MT1-MMP reporter, WNV NS2B-NS3 inh
CC(=O)N1CCc2cc(C(=O)CN3CCCN(Cc4ccc(F)cc4)C3)ccc21
 : 5.6%, i, 0.05
Cc1cc(NC(=O)c2cc(-c3ccc4c(c3)OCO4)on2)n(-c2ccccc2)n1
 : -0.5%, i, 0.38
CCCN(CCC)S(=O)(=O)c1ccc(C(=O)N2CCOCC2)cc1
 : -2.7%, i, x
Cc1nn(CC(=O)O)c(=O)c2ccccc12
 : -0.4%, i, x
Cc1cccn2c(=O)c3cc(C#N)c(=N)n(Cc4ccncc4)c3nc12
 : 1.9%, i, -1.1
CC(=O)Oc1ccc(C(=O)Nc2ccc3c(c2)C(=O)N(CCC(=O)O)C3=O)cc1
 : 5.1%, i, x
Cn1cnnc1SCC(=O)Nc1ccccc1Sc1ccccc1
 : -0.9%, i, -0.72
COc1ccc(C2SCC(C(=O)O)N2C(C)=O)cc1OC (stereo unspecified)
 : 0.7%, i, -0.32
Cc1ccc(C(c2sc3nc(C)nn3c2O)N2CCOCC2)cc1 (stereo unspecified)
 : 5.0%, i, 2.5
Cc1ccc2[nH]c(=O)c(C(c3nnnn3CC3CCCO3)N3CCc4ccccc4C3)cc2c1 (stereo unspecified)
 : 7.9%, i, 1.3
Cc1cc(OC(=O)CNC(=O)OC(C)(C)C)c2c(C)cc(=O)oc2c1
 : 1.9%, i, 0.22
CCOC(=O)c1ccc(NC(=O)C2CCN(C(=O)c3ccc(OC)c(OC)c3)CC2)cc1
 : 1.7%, i, x
NC(=O)CSc1nnc(Cn2c(=O)sc3ccccc32)n1-c1ccccc1
 : 2.9%, i, 0.61
CC(C)CCNC(=O)CN(CCN1CCOCC1)C(=O)Cn1nnc(-c2ccc(F)cc2)n1
 : 0.4%, i, -0.61
COc1ccccc1N1CCN(C(=O)CSc2nnc(NC(=O)C3CCC3)s2)CC1
 : -6.3%, i, -1.1
CCOCCCNC(=O)Cn1nc(-c2ccccc2)ccc1=O
 : -1.0%, i, 0.2
CCOC(=O)c1sc(=NC(=O)c2ccc(S(=O)(=O)N3CCOCC3)cc2)n(C)c1C
 : 3.7%, i, -1
O=C(OCC(=O)N1N=C(c2ccc(Cl)cc2)CC1c1ccco1)c1ccccc1O (stereo unspecified)
 : -21%, i, x
COc1ccc(C(=O)CSc2nnc(C3CC3)n2N)cc1
 : 7.2%, i, x
O=C(NCc1ccco1)c1cc(-c2ccccc2)on1
 : -1.3%, i, -0.71
CCOC(=O)C1CCCN(CC(=O)Nc2c(C(=O)OC)[nH]c3ccc(Cl)cc23)C1 (stereo unspecified)
 : 2.1%, i, -0.22
Cc1ccc(C2C(=O)N(C3CCC(C)CC3)CC(=O)N2C2CCCC2)cc1 (stereo unspecified)
 : 0.6%, i, x
Cc1ccc(-c2n[nH]c(=S)n2C)cc1
 : 1.5%, i, -1.3
Cc1cc(C(=O)OCn2nnc3ccccc3c2=O)c(C)n1-c1ccccc1
 : -2.0%, i, -0.65
O=C(Nc1ccc(Br)cc1Cl)Nn1cnnc1
 : 3.4%, i, -0.18
CCOCCCn1c(=NC(=O)c2cccnc2)c(C(=O)OCC)cc2c(=O)n3ccccc3nc21
 : -9.0%, i, 0.9
CCOc1cccc(C=Nc2cc(C)cc(C)c2O)c1O
 : -1.4%, i, -1.1
N#Cc1c(NC(=O)CSc2nc3ccccc3c(=O)n2Cc2ccco2)sc2c1CCCC2
 : -12%, i, -1.2
COc1cc(Br)cc(-c2nc3c(c(=O)[nH]c(=O)n3Cc3ccccc3)n2C)c1O
 : -1.9%, i, 0.49
CN(C)S(=O)(=O)c1ccc(C(=O)Nc2cccc(C(=O)O)c2)cc1
 : -0.2%, i, -0.64
Cc1ccc(C(=O)Nc2ccccc2OC(F)F)cc1
 : 0.2%, i, x
CCN(CC)CC#CCOC(=O)C(O)(c1ccccc1)C1CCCCC1 (stereo unspecified)
 : -14%, i, 0.01
O=C(O)c1ccc(-n2c(-c3ccc(Br)cc3)n[nH]c2=S)cc1
 : -2.3%, i, x
c1cn(-c2ncnc3sc4c(c23)CCCC4)cn1
 : 0.5%, i, 1.4
COc1ccc(-n2c(Cn3c(=O)sc4ccccc43)nnc2SCC(=O)N2CCCCC2)cc1
 : -1.0%, i, -1.7
CCOC(=O)c1sc(NC(=O)c2cc3c(s2)CCC(C)C3)nc1C (stereo unspecified)
 : -7.0%, i, x
COc1ccc(C(=O)CSc2nc3nc(C)cc(C)c3c(=O)[nH]2)cc1OC
 : -6.8%, i, -0.15
COc1ccc(Cn2c(CCC(=O)Nc3ccc(CC#N)cc3)nc3cccnc32)cc1
 : -16%, i, -0.04
COCCn1c(-c2ccc(OC(F)(F)C(F)C(F)(F)F)cc2)nc2c1c(=O)[nH]c(=O)n2CC(C)C (stereo unspecified)
 : 5.2%, i, x
COc1ccc(NC(=O)c2ccc(S(=O)(=O)N(C)C)cc2)cc1OC
 : 3.0%, i, -1.1
Cc1cc(C(=O)OCC(=O)c2ccc3c(c2)OCCO3)c(C)o1
 : 5.3%, i, 0.69

Compound activity (PubChem)

These rows are one share of the data (hit frequency here may not be typical).
